Marburg entry inh = blocks Marburg virus binding to or entry into cells; Marburg virus pseudotyped entry inhibition, cell reporter; control for the full effect not named in the record; about a third of the inactives were read at about 46 µM; actives 1.8% (n = 300,000); Potency, µM (highest dose often 37.8 µM), inactives show at the top dose activity change, negative = inhibition, most hits filed as inhibitors; active = well fitted inhibition curve with a large enough effect; inconclusive = small, poorly fitted or top-dose-only effect, or effect the other way; inactive = flat fitted curve, though single readings scatter; tested in HEK293 cells; about a fifth of its hits are not listed in these tables; also: % is scaled to controls: 0 for no effect and ±100 for the full control effect; luciferase read-out
SARS PLpro yeast = SARS-CoV PLP inhibition in yeast | S. cerevisiae expressing SARS-CoV PLpro, growth rescue; control for the full effect not named in the record | actives 0.19% (n = 330,000) | Potency, µM (titrated, usually from 32.9 µM), for the others: at the top dose activity, positive = growth rescue | AID 485353; also: 0% is about no effect; nearly all actives have a fitted effect of over 55% in size; growth read by luminescence after 48 h
RE007 growth inh = less growth of the S. pombe RE007 Vpr strain. actives 0.21% (n = 360,000). Potency, µM (series often up to 92.2 µM), for inactives: at the highest dose activity change, negative = less growth. S. pombe RE007 Vpr strain, BacTiter-Glo ATP luminescence, 24 h; control for the full effect not named in the record. AID 651644; active = well fitted falling curve with a large enough effect; inconclusive = small, poorly fitted or top-dose-only effect; inactive = no such curve, though single readings can be large or run the other way;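 also: % is scaled to controls: 0 for no effect and ±100 for the full control effect; nearly all actives have a fitted effect of over 50% in size; the assay follows cell death caused by Vpr and the record does not say whether a fall means rescue or toxicity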
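Fission yeast strain RE007, carrying one chromosomally integrated HIV-1 vpr copy, was seeded at OD 0.01 in PMG+AL medium with 23 nL pinned compound. After 24 h at 30 °C and 99% humidity, viability was read by BacTiter-Glo luminescence.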
Cruzain noTriton = inhibitors of Trypanosoma cruzi cruzain without detergent; Potency, µM, for inactives: max response, negative = inhibition, usual class: inhibitors; purified cruzain, Z-FR-AMC fluorescence, no detergent; actives 2.3% (n = 200,000); AID 1476; P25779; active = well fitted curve in the direction sought with a large enough effect; inconclusive = small, poorly fitted or top-dose-only effect, or another doubt; inactive = no such curve, though single readings can be large; an effect the other way counts as inactive or inconclusive;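 also: plate controls were enzyme without inhibitor for no effect and buffer without enzyme for full effect; nearly all actives have a fitted effect of over 40% in size; top concentration of the series not given in the record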
Target sequence (P25779 123-467 limits assumed): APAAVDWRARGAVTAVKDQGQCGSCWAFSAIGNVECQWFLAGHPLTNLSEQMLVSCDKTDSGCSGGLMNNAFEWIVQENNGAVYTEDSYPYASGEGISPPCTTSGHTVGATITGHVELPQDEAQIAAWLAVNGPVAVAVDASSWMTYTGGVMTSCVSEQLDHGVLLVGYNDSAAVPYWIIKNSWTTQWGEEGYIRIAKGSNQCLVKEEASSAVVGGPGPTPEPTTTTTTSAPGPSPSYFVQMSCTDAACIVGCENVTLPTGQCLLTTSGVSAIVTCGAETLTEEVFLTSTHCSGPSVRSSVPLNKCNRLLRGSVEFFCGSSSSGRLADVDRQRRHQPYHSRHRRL
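Detergent-free condition (0.00005% Triton X-100) in acetate buffer pH 5.5 with DTT. 1.5 nM enzyme and compound were pre-mixed 15 min, then 2 uM Z-FR-AMC substrate added; reaction progress from fluorescence change between first and third reads (60 s).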
Cruzain Triton = blocks cruzain activity in presence of Triton detergent; purified cruzain, Z-FR-AMC fluorescence, 0.01% Triton; P25779; actives 0.43% (n = 200,000); Potency, µM, without a hit: max response, negative = inhibition, most hits filed as inhibitors; active = well fitted curve in the direction sought with a large enough effect; inconclusive = small, poorly fitted or top-dose-only effect, or another doubt; inactive = no such curve, though single readings can be large; an effect the other way counts as inactive or inconclusive;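 also: plate controls were neutral wells for no effect and buffer without enzyme for full effect; nearly all actives have a fitted effect of over 40% in size; top concentration of the series not given in the record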
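Cruzain (1.5 nM) preincubated 15 min at RT with compound in 100 mM sodium acetate pH 5.5, 5 mM DTT, 0.01% Triton X-100. Reaction started with 2 uM Z-FR-AMC; AMC fluorescence (ex 360/em 450 nm) change over 60 s gave rate.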
NS1 inh = blocks influenza NS1 protein function | S. cerevisiae slowed by influenza A NS1, growth recovery by OD600 | Potency, µM (doses to about 46.1 µM), for the others: at the highest dose activity, positive = more growth | AID 2326 | actives 0.4% (n = 270,000); also: actives are rising curves; nearly all actives have a fitted effect of over 50% in size
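Growth recovery, yeast-based: influenza A NS1 expressed in S. cerevisiae causes slow growth, and suppressors are detected by OD600. The parent strain without NS1 is used as positive control.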
LASV entry inh = inhibitors of Lassa virus binding or cell entry; actives 1.2% (n = 300,000); Potency, µM (highest dose often 37.9 µM), inactives show at the top dose activity change, negative = inhibition, usual class: inhibitors; Lassa virus pseudotype entry inhibition, cell reporter; control for the full effect not named in the record; active means well fitted inhibition curve with a large enough effect; inconclusive means small, poorly fitted or top-dose-only effect, or effect the other way; inactive means flat fitted curve, though single readings scatter; tested in HEK293 cells; also: % is scaled to controls: 0 for no effect and ±100 for the full control effect; nearly all actives have a fitted effect of over 50% in size; luciferase read-out
StopGo reporter = FMDV 2A StopGo reporter, luciferase signal | human cells with a luciferase reporter of 2A StopGo recoding; control for the full effect not named in the record | Potency, µM (doses to about 57.9 µM), without a hit: at the highest dose signal change, negative = less light | actives 1.2% (n = 410,000); active = well fitted falling curve with a large enough effect; inconclusive = small, poorly fitted or top-dose-only effect; inactive = no such curve, though single readings can be large or run the other way; tested in HEK293T cells; also: % is scaled to controls: 0 for no effect and ±100 for the full control effect; nearly all actives have a fitted effect of over 45% in size; luciferase light after 4 h
Numbers without * were called inactive; ? = inconclusive; · = not tested or not shown; & = joins results of further samples; [ ] = dose if it differs, or a comment. Unless noted, calls follow the shape of the dose curve; as a rule, active means well fitted rising curve with a large enough effect; inconclusive means small, poorly fitted or top-dose-only effect; inactive means no such curve, though single readings can be large or run the other way. Potency is read from the fitted curve at half-maximal effect.

Every second line gives: Cruzain Triton	NS1 inh	SARS PLpro yeast	RE007 growth inh	Marburg entry inh	Cruzain noTriton	LASV entry inh	StopGo reporter
- COc1ccccc1C(=O)N(Cc1ccc(Cl)cc1)C1CCS(=O)(=O)C1 (centres undefined)
→ ·	0%	12%	-4%	·	·	·	-16%
- COc1cc(NC(=O)CCNC(=O)Cn2ccc3ccccc3c2=O)cc(OC)c1OC
→ -2.3%	-31%	4%	-23%	2%&6%[46.1 µM]	-11%	10%	53%&-3%[activator]
- CC(=O)O[C@H]1c2ccccc2-c2ccccc2[C@@H]1OC(C)=O
→ ·	-6%	-6%	21%	·	·	·	-7%
- O=C(CN(c1cccc(Cl)c1)S(=O)(=O)c1ccc(Cl)cc1)N1CCc2ccccc2C1
→ -3.3%	?	-2%	4%	?	?	?	11%
- CC(=O)c1cccc(NS(=O)(=O)N2CCOCC2)c1
→ ·	6%	1%	3%	-20%[46.1 µM]	·	-2%[46.1 µM]	10%
- O=C(NCCc1c[nH]c2ccccc12)/C(=C\c1cccnc1)NC(=O)c1ccco1
→ 0.2%	23%	27%	-16%	?	12%	-5%	-26%
- COc1ccc(-c2cc(C(=O)Nc3ccc(C)c(C)c3)no2)cc1
→ ·	6%	3%	-6%	·	·	·	-21%
- O=C(O)c1cccc(NC(=S)NC(=O)c2ccc(-c3ccc(Cl)cc3)o2)c1
→ ·	·	1%	-13%	?	·	?	19%
- O=C(Nc1cccnc1)c1coc(=O)c2ccccc12
→ -2.5%	-2%	0%	2%	4%	-2%	-10%	-12%
- COc1ccc(C(CNC(=O)COc2cc(C)ccc2Cl)N2CCCCC2)cc1 (centres undefined)
→ ·	·	5%	-11%	-16%[46.1 µM]	·	8%	-13%
- Cc1noc(C)c1S(=O)(=O)N1CCCC(C(=O)NCc2ccccc2Cl)C1 (centres undefined)
→ ·	0%	-20%	9%	·	·	·	-2%
- O=c1onc(-c2ccccc2Cl)n1-c1ccccc1Cl
→ ·	·	·	3%	-6%	·	0%	-8%
- COc1ccc2c(c1)cc1n2CCN=C1N
→ 2.0%	-12%	3%	-13%	10µM*	2%	2%	·
- CCn1c(SCC(=O)Nc2ccc3c(c2)oc2ccccc23)nnc1-c1ccc(N)cc1
→ -5.0%	21%	-15%	-2%	-30%&-30%	-12%	?	?
- CC(C)c1ccc(NC(=O)Cc2c(C(=O)O)n(C)c3ccccc23)cc1
→ ·	12%	1%	12%	0%	·	8%	-2%
- COC(=O)CCNC(=O)c1ccc2nc(Cc3ccc(OC)cc3)oc2c1
→ ·	·	·	4%	5%	·	-19%	6%
- O=C(N/N=C/c1ccc[nH]1)c1cccnc1
→ -2.4%	11%	-2%	-27%	7%	-2%	14%	-2%
- C[C@@H](C(=O)NCc1ccccn1)[C@@H]1C[C@@]1(C)[C@@H](NC(=O)OCc1ccccc1)c1ccccc1
→ -3.6%&-3.3%	-18%	7%	0%	1%	6%&4%	?	0%
- Cc1nc2ccc(NS(=O)(=O)c3cccc([N+](=O)[O-])c3)cc2s1
→ ·	·	-1%	3%	?	·	-1%[46.1 µM]	-8%
- O=S(=O)(c1ccccc1)c1nc(-c2ccccc2)oc1N1CCCCC1
→ -8.8%	11%	4%	10%	?	-8%	-14%	78%[activator]
- O=C(COc1ccccc1-c1ccccc1)N/N=C/c1cccc2ccccc12
→ 8.4%	-2%	-3%	29%	?	?	?	?
- CCOc1ccc2cc(S(=O)(=O)N3CCCCC3)ccc2c1
→ ·	-6%	-2%	1%	?	·	-16%[46.1 µM]	31%[activator]
- C1CCN(c2nc3nonc3nc2NCC2CCOCC2)CC1
→ ·	-4%	0%	-5%	·	·	·	-9%
- COc1ccccc1C(=O)OCC(=O)NC(=O)NC1CCCCC1
→ ·	·	0%	-7%	?	·	8%	-8%
- CCOc1ccc(C(=O)Nc2nnc(S(=O)(=O)N(C)Cc3ccco3)s2)cc1
→ ·	4%	0%	1%	·	·	·	11%
- Clc1ccc2nc(CSc3ccccc3)cn2c1
→ ·	-7%	0%	-13%	?	·	?	-51%
- COc1cc(OC)cc(-n2c(=O)[nH]c3cc(C(=O)NCCc4ccc(C)cc4)ccc3c2=O)c1
→ -0.3%	·	·	·	18%[46.1 µM]	12%	-9%[46.1 µM]	-17%
- CC(C)c1ccc(NS(=O)(=O)c2ccc3[nH]cc(C(=O)NCC4CCCO4)c(=O)c3c2)cc1 (centres undefined)
→ -13%	·	·	·	5%[46.1 µM]	?	14%[46.1 µM]	16%
- COc1cc(/C(C)=N/Nc2ccc(C(=O)O)cc2)cc(OC)c1OC
→ -9.0%	?	-13%	-3%	?	-6%	?	16%
- Cn1c(CSCc2ccc(Cl)cc2)n[nH]c1=S
→ ·	-4%	0%	23%	7%[46.1 µM]	·	-10%[46.1 µM]	-24%
- CC1(C)OC(c2ccccc2)=C/C(=C/C=C2C(=O)NC(=O)NC2=O)O1
→ ·	·	-5%	-9%	-18%	·	2%	0%
- CC1=C(C(=O)NCCCOC(C)C)C2(CCC(C)CC2)OC1=O (centres undefined)
→ 4.5%	-7%	-2%	-4%	·	11%	·	-22%
- CCn1c(=S)sc2c(=O)n(CC(=O)Nc3cc(OC)ccc3OC)c(C)nc21
→ ·	-4%	5%	-18%	?	·	-5%[46.1 µM]	-23%
- CCOC(=O)c1c(N2CCN(c3ccccc3)CC2)cc(C)nc1C
→ ·	-2%	-3%	2%	·	·	·	?
- CCc1nnc(NC(=O)CSc2nnnn2-c2cccc(C(C)=O)c2)s1
→ ·	3%	0%	14%	·	·	·	-29%
- CC(=O)c1cccc(N(CC(=O)NC2CCCCC2)C(=O)CCC(=O)Nc2nc(C)cs2)c1
→ ·	-3%	1%	-7%	-7%[46.1 µM]	·	1%[46.1 µM]	-12%
- COc1cccc(OC)c1OCCCNC1CCCC1
→ ·	7%	3%	-9%	·	·	·	-13%
- CCC1CN(C(=O)N2CCC(C(=O)N3CCN(c4cc(C)ccc4C)CC3)CC2)c2ccccc2O1 (centres undefined)
→ -4.0%	·	·	·	·	4%	7%[46.1 µM]	18µM*
- Cc1cc(C)c2nc(N3CCC(C(=O)N4CCCC4)CC3)sc2c1
→ 3.6%	-67%	-1%	-29%	1%	?	-8%	·
- CCCCCn1c(C(Cc2ccccc2)NC(=O)COC)nc2ccccc21 (centres undefined)
→ -0.6%	-30%	3%	-9%	7%	?	·	?
- CS(=O)(=O)N1CCN(c2ccc([N+](=O)[O-])c(SCc3ccco3)c2)CC1
→ ·	·	-5%	4%	-12%[46.1 µM]	·	?	-7%
- COc1ccc(-c2nc(NC(=O)c3ccc(OCC(=O)N4CCOCC4)c(OC)c3)sc2C)cc1
→ -9.8%	17%	9%	-1%	?	?	?	?
- CCCC(=O)Nc1nnc(-c2ccc3c(c2)OCCO3)o1
→ ·	·	-5%	2%	10%[46.1 µM]	·	-5%	43%[activator]
- Cc1nn(-c2ccccc2)c(C)c1NC(=O)COC(=O)c1cccc(OC(F)F)c1
→ ·	·	-6%	17%	?	·	7%	-23%
- COc1ccc(CSCC(=O)NCCC(C)C)cc1
→ ·	2%	-1%	-9%	·	·	·	-10%
- O=C(O)c1ccc(S(=O)(=O)c2ccc(Sc3ccc(C(=O)O)c(C(=O)O)c3)cc2)cc1
→ ·	3%	0%	?	23%[46.1 µM]	·	6%	-9%
- CCOc1ccccc1N1CC(C(=O)Nc2ccccc2N2CCCC2)CC1=O (centres undefined)
→ ·	·	1%	3%	4%[46.1 µM]	·	23%	-14%
- Cc1cc(C(F)(F)F)nn1CC(=O)NNC(=S)Nc1ccc(Cl)cc1
→ -3.4%	5%	-1%	9%	2%	9%	-5%	26%
- CCC(=O)N1CCc2cc(S(=O)(=O)NC(Cc3ccccc3)C(=O)NC3CCCC3)ccc21 (centres undefined)
→ 1.2%	-4%	13%	0%	0%&0%	5%	-1%	-4%
- CCOc1ccc(S(=O)(=O)N(CC(=O)NCCc2ccc(OC)cc2)c2ccccc2)cc1
→ -2.2%	·	·	·	2%[46.1 µM]	-2%	-18%[46.1 µM]	-2%
- CCN(CC)CCCn1c(=S)[nH]c2ccccc2c1=O
→ -1.5%	-4%	8%	5%	-26%	-9%	-2%	16%
- Clc1cccc(OCCn2cncn2)c1Cl
→ 0.3%	-2%	-1%	-3%	5%	-10%	24%	-6%
- C[n+]1c2cc(N)ccc2cc2ccc(N)cc21
→ -29%	·	·	?	·	?	·	?
- CC1(C(=O)N2CCC(CC3CC(c4ccc(Cl)cc4)=NO3)(C(=O)NCC3CCCCC3)CC2)CC1 (centres undefined)
→ ·	18%	9%	-2%	·	·	·	-14%
- CCOC(=O)C1=C(CN2CCC(C(=O)OCC)CC2)NC(=O)NC1c1ccc(Cl)cc1 (centres undefined)
→ 1.4%	·	·	·	-3%[46.1 µM]	-5%	2%[46.1 µM]	-30%
- c1ccc(-c2nc3ccccc3s2)nc1
→ -1.8%	-11%&-5%	8%&-1%	-17%&-7%	?	-7%	?	7%&-19%
- O=C(Nc1ccncc1)C1CCC(CNS(=O)(=O)c2cccc3nsnc23)CC1 (centres undefined)
→ ·	-2%	0%	-3%	·	·	·	?
- COCCCNC(=O)Cn1cc(/C=C(\C#N)C(=O)NC2CCCC2)c2ccccc21
→ ·	-1%	1%	1%	·	·	·	15%
- Cc1ccc(NC(=O)c2c(C)nn(-c3ccccc3)c2Cl)c(C)c1
→ 3.2%	-4%	-19%	-7%	8%	4%	2%	-10%
- CC(=O)c1ccc(NC(=O)C2CCCN2S(=O)(=O)c2cccs2)cc1 (centres undefined)
→ ·	·	-5%	1%	-8%[46.1 µM]	·	20%	-19%
- O=C(CCc1nnc(-c2ccc3c(c2)OCO3)o1)N(Cc1ccncc1)CC1CCCO1 (centres undefined)
→ ·	2%	0%	6%	·	·	·	1%
- Cc1cc(C)cc(C(=O)N2CCN(Cc3ccc4c(c3)OCO4)CC2)c1
→ ·	2%	-12%	12%	?	·	-12%	-17%
- Cc1cccc(N2CCN(c3ccc4cc(S(=O)(=O)N5CCC(C)CC5)ccc4n3)CC2C)c1 (centres undefined)
→ -6.1%	·	·	·	·	-6%	-2%[46.1 µM]	?

Bioassay records as filed in PubChem.
